Luc counter: counter-screen: inhibitors of Kinase-Glo firefly luciferase; Potency, µM (top dose mostly 38.3 µM), for the others: at the top dose activity change, negative = inhibition, hits mostly inhibitors; Q27757; Kinase-Glo luciferase, ATP luminescence, 8 min; actives 0.28% (n = 200,000); AID 1379; further: potency means the concentration at half of the fitted maximal effect; on the % scale 0 is the no-effect control and ±100 the full control effect; nearly all actives have a fitted effect of over 60% in size
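Substrate mix (final 50 mM imidazole pH 7.2, 50 mM KCl, 7 mM MgCl2, 10 uM ATP, 0.01% Tween 20, 0.05% BSA) plus pin-tool compound, then Kinase-Glo detection mix; 8 min ambient, luminescence read.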
GLA spleen mod: alpha-galactosidase A (human) modulation. actives 0.008% (n = 240,000). P06280. human spleen homogenate, 4MU-alpha-Gal fluorescence, 40 min. Potency, µM (titrated, usually from 80 µM), for the others: at the highest dose activity change, negative = inhibition, most hits filed as inhibitors;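 further: potency means the concentration at half of the fitted maximal effect; 0% = enzyme with vehicle and -100% = no enzyme basal signal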
Target sequence (P06280 32-429 limits assumed): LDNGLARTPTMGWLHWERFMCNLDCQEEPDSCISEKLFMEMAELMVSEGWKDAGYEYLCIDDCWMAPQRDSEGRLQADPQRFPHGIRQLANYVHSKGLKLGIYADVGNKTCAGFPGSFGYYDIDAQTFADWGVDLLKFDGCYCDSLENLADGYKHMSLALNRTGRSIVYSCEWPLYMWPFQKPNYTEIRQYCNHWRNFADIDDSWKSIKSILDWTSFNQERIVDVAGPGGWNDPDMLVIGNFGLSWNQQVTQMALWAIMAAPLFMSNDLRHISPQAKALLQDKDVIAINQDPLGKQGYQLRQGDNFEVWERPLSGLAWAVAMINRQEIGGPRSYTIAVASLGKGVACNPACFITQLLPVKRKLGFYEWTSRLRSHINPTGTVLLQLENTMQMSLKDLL
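Inhibition or activation of alpha-galactosidase in human spleen homogenate is scored by 4-MU fluorescence after 40 min at 37C, pH 5.0, with 1 mM substrate. AC50s come from concentration-response fitted to the Hill equation.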
Epigenetic derep: epigenetic control regulation, reporter derepression | murine LDR cells, GFP reporter derepression, 30 h | actives 0.2% (n = 280,000) | Potency, µM (doses to about 53.9 µM), for inactives: at the top dose GFP activation, usual class: activators; further: potency means the concentration at half of the fitted maximal effect; % of control where 0% means no effect; nearly all actives have a fitted effect of over 60% in size
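Readout is the number of GFP-expressing murine LDR cells, counted by cytometry following washing. Cells were treated with compound for 30 h at 37 C; the stably integrated CMV-GFP locus is normally silent.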
IMPase Li cell: IMPase inhibition in cells with lithium potentiation. CHO-M1 cells, IP1 TR-FRET (IP-One), carbachol + lithium. Potency, µM (series often up to 59.4 µM), inactives show top-dose activity, negative = IMPase inhibition, most hits filed as inhibitors. actives 0.35% (n = 210,000);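 further: IP1 builds up when IMPase is blocked and the TR-FRET signal falls; potency means the concentration at half of the fitted maximal effect; plate controls were basal vehicle for no effect and high inhibitor control for full effect; nearly all actives have a fitted effect of over 50% in size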
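Concentration–response in CHO-M1 cells, lithium-potentiated; 30 min at 37C. IP1 detected by competitive TR-FRET after 10 min lysis at RT. Hill-fitted AC50.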
Lamin A splicing: modulators of lamin A splicing; HeLa LMNA splicing GFP/RFP minigene ratio, 48 h; Potency, µM (titrated, usually from 46.1 µM), for inactives: top-dose ratio change, negative = inhibition, hits mostly inhibitors; actives 0.01% (n = 200,000); active means well fitted inhibition curve with a large enough effect in the signal ratio, with a control signal flat, not every such curve was filed as active; inconclusive means small, poorly fitted or top-dose-only effect, or effect the other way, or a change in a side signal; the % refers to the signal ratio; further: potency means the concentration at half of the fitted maximal effect; on the % scale 0 is the no-effect control and ±100 the full control effect
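S3 HeLa stable clones carrying a lamin A-EGFP splicing minigene plus DsRed2 were seeded at 600 cells/well in Opti-MEM with 2% FBS, pin-dosed and incubated 48 h at 37°C. Acumen cytometry (488 nm) gave the GFP/RFP total-intensity ratio.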
CBFb-RUNX1 inh: CBF-beta/RUNX1 interaction disruption | AID 1477 | 230,000 tested, under 10 active | AlphaScreen CBFb-His/RUNX1-biotin binding, biochemical | Potency, µM (doses to about 59.8 µM), for inactives: at the top dose activity, negative = inhibition, most hits filed as inhibitors; further: % of control where 0% means no effect
Target sequence (Q01196 whole entry, looked up): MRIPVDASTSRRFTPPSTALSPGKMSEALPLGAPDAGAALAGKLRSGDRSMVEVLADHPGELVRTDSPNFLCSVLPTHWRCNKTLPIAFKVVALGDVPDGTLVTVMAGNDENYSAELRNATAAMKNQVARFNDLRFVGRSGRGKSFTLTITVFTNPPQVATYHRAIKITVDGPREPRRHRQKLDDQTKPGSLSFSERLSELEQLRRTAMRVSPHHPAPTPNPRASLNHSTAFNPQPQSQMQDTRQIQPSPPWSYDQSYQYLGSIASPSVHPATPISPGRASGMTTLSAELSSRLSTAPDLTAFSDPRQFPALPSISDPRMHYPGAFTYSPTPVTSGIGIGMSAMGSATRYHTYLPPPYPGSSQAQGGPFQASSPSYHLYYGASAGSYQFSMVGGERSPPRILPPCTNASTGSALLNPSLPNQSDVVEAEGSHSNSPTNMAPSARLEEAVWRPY
Target sequence (Q13951 whole entry, looked up): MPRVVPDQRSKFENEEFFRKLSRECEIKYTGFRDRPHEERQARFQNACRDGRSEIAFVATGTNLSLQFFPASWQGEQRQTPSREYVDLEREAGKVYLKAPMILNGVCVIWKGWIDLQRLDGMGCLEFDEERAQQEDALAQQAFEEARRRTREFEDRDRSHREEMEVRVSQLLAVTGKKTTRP
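His-tagged CBF-beta and biotinylated RUNX1 (30 nM each) were premixed 20 min at room temperature, exposed to compound for 15 min, then given nickel-chelate and streptavidin AlphaScreen beads (50 ng each). After 90 min, AlphaScreen signal was read.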
An asterisk follows results filed as active; ? = inconclusive; nt = not tested or not shown; & = joins results of further samples; [ ] = remark or other dose. Unless noted, the call rests on the fitted dose curve; in most records, active means well fitted curve in the direction sought with a large enough effect; inconclusive means small, poorly fitted or top-dose-only effect, or another doubt; inactive means no such curve, though single readings can be large; an effect the other way counts as inactive or inconclusive. Some of the compounds tested (hit frequency here may not be typical).

item	SMILES	Luc counter	GLA spleen mod	Epigenetic derep
1	COC(=O)c1sc(-c2ccccc2)cc1NC(=O)c1cc(OC)cc(OC)c1	-3%	-3%	1.0%
2	Fc1ccc(Nc2nc(N/N=C/c3ccco3)nc(N3CCCCC3)n2)cc1	-4%	3%	-0.9%
3	CCCN(CCO)Cc1ccc(F)c(Br)c1	-2%	4%	4.4%
4	O=C(CSc1nnnn1-c1ccc2c(c1)OCCO2)Nc1nc2c(s1)CCCC2	-1%	-3%	-0.7%
5	Cc1c(C)n(C(=O)CN2CCC(C)CC2)c2ccccc12	-2%	-7%	2.0%
6	CCCN1CCN(C(=O)CCCNC(=O)Cn2cnc3sc(C)c(C)c3c2=O)CC1	-3%	8%	1.0%
7	COc1ccc(CNc2nc3c(c(=O)n(Cc4ccc(Cl)cc4)c(=O)n3C)n2C)cc1	0%	-4%	-0.2%
8	O=C(NCCN1CCOCC1)c1cc2c(=O)n3ccccc3nc2n1Cc1ccccc1	1%	?	0.0%
9	CCOC(=O)Cc1csc(SCC(=O)Nc2cc(Cl)ccc2Oc2ccccc2)n1	17%	4%	1.1%
10	O=C(O)C1CCN(c2ncccn2)CC1	1%	-16%	-1.9%
11	Cc1ccccc1C(=O)NNC(=S)NC(=O)c1ccc(Cl)cc1Cl	1%	-2%	3.2%
12	O=C(Nc1cccnc1)c1sc(Nc2ccccc2F)nc1-c1ccccc1	nt	-4%	6.3%
13	NC(N)=N/N=C/c1ccc(Cl)c(Cl)c1	nt	11%	0.0%
14	COc1ccc(C)cc1NC(=O)CSc1nnc(COc2ccc(Cl)cc2)n1Cc1ccco1	0%	-6%	0.0%
15	Cc1cccc2c1N(CCOc1ccc(C(C)(C)C)cc1)C(=O)C2=O	-1%	-11%	4.1%

item	IMPase Li cell	Lamin A splicing	CBFb-RUNX1 inh
1	-7%	-18%	1%
2	24%	?	?
3	7%[38.3 µM]	1%	4%
4	19%[38.3 µM]	?	-5%
5	2%[38.3 µM]	10%	0%
6	18%[38.3 µM]	2%	2%
7	19%[38.3 µM]	?	1%
8	-24%[38.3 µM]	-5%	6%
9	39%[activator][38.3 µM]	5%	29%
10	-15%[38.3 µM]	-1%	0%
11	18%[38.3 µM]	-25%	-11%
12	-4%	nt	5%
13	nt	nt	11%
14	11%[38.3 µM]	?	-4%
15	11%	-14%	0%

Twelve successive compounds out of the list so far, quoted:
item	SMILES	Luc counter	GLA spleen mod	Epigenetic derep
1	COC(=O)c1sc(-c2ccccc2)cc1NC(=O)c1cc(OC)cc(OC)c1	-3%	-3%	1.0%
2	Fc1ccc(Nc2nc(N/N=C/c3ccco3)nc(N3CCCCC3)n2)cc1	-4%	3%	-0.9%
3	CCCN(CCO)Cc1ccc(F)c(Br)c1	-2%	4%	4.4%
4	O=C(CSc1nnnn1-c1ccc2c(c1)OCCO2)Nc1nc2c(s1)CCCC2	-1%	-3%	-0.7%
5	Cc1c(C)n(C(=O)CN2CCC(C)CC2)c2ccccc12	-2%	-7%	2.0%
6	CCCN1CCN(C(=O)CCCNC(=O)Cn2cnc3sc(C)c(C)c3c2=O)CC1	-3%	8%	1.0%
7	COc1ccc(CNc2nc3c(c(=O)n(Cc4ccc(Cl)cc4)c(=O)n3C)n2C)cc1	0%	-4%	-0.2%
8	O=C(NCCN1CCOCC1)c1cc2c(=O)n3ccccc3nc2n1Cc1ccccc1	1%	?	0.0%
9	CCOC(=O)Cc1csc(SCC(=O)Nc2cc(Cl)ccc2Oc2ccccc2)n1	17%	4%	1.1%
10	O=C(O)C1CCN(c2ncccn2)CC1	1%	-16%	-1.9%
11	Cc1ccccc1C(=O)NNC(=S)NC(=O)c1ccc(Cl)cc1Cl	1%	-2%	3.2%
12	O=C(Nc1cccnc1)c1sc(Nc2ccccc2F)nc1-c1ccccc1	nt	-4%	6.3%

item	IMPase Li cell	Lamin A splicing	CBFb-RUNX1 inh
1	-7%	-18%	1%
2	24%	?	?
3	7%[38.3 µM]	1%	4%
4	19%[38.3 µM]	?	-5%
5	2%[38.3 µM]	10%	0%
6	18%[38.3 µM]	2%	2%
7	19%[38.3 µM]	?	1%
8	-24%[38.3 µM]	-5%	6%
9	39%[activator][38.3 µM]	5%	29%
10	-15%[38.3 µM]	-1%	0%
11	18%[38.3 µM]	-25%	-11%
12	-4%	nt	5%

(listing goes on)
item	SMILES	Luc counter	GLA spleen mod	Epigenetic derep
16	O=C(NC1CCCC1)C(c1ccccc1)N(C(=O)c1ccno1)c1cccnc1 (centres undefined)	-3%	5%	5.3%
17	Cc1ccc(C(=O)NNC(=O)C2CCCN(c3ncccn3)C2)cc1 (centres undefined)	-1%	-8%	-1.1%
18	COC(=O)[C@@]1(Cc2ccc(OC)cc2)[C@H]2c3cc(C(=O)N4CCCC4)n(Cc4ccc(C)o4)c3C[C@H]2CN1C(=O)c1ccccc1	0%&-4%	-4%&1%	0.3%&8.6%
19	CC(C)(C)c1ccc(OCC(=O)N2CCCCCC2)c(Br)c1	0%	5%	-3.2%
20	CC(C)CCC(C)N=Cc1c(O)n(Cc2ccccc2)c(=O)c2ccccc12 (centres undefined)	-4%	1%	-2.7%
21	Cc1ccc(-c2nc(CN(C)C3CCOC3)c(C)o2)s1 (centres undefined)	-1%	0%	0.1%
22	COCCn1c(-c2ccc(OC(F)(F)C(F)C(F)(F)F)cc2)nc2c1c(=O)[nH]c(=O)n2CC(C)C (centres undefined)	-4%	2%	1.5%
23	CCN(CC)C(=O)CSc1nc2ccccc2c(=O)n1CC1CCCCC1	nt	-2%	-4.3%
24	O=C(Nc1ccc(Oc2ncnc3cc(Cl)ccc23)nc1)c1cccs1	nt	1%	2.1%
25	COc1ccc(-c2cc(C3C4C=CCC(C)C4C(=O)N3Cc3ccccc3)ccc2F)cc1OC (centres undefined)	nt	0%	nt
26	COC(=O)c1sc(-c2ccc(Cl)cc2)cc1NC(=O)/C=C/C(=O)O	nt	1%	1.0%
27	COc1cc(C(=O)Nc2ccc(O)cc2)ccc1OC(C)=O	-10%	1%	1.4%
28	COc1ccc2[nH]c3c(=O)n(Cc4ccc(C(=O)N5CCCCCC5)cc4)c(=S)[nH]c3c2c1	1%	-8%	-4.3%
29	Cc1ccc(CNCC(=O)Nc2cccc(S(=O)(=O)NC3=NCCCCC3)c2)cc1	0%	2%	-0.1%
30	O=C(Nc1cc(F)ccc1F)N1CCN(c2ccnc3cc(Cl)ccc23)CC1	nt	-3%	0.0%

item	IMPase Li cell	Lamin A splicing	CBFb-RUNX1 inh
16	-6%[38.3 µM]	3%	7%
17	-6%[38.3 µM]	-1%	3%
18	27%&20%	?	?
19	20%	nt	4%
20	20%[38.3 µM]	-5%	-10%
21	6%	?	3%
22	5%[38.3 µM]	1%	1%
23	nt	?	10%
24	nt	nt	14%
25	nt	nt	-3%
26	nt	nt	4%
27	35%[activator][38.3 µM]	-17%	0%
28	11%	nt	1%
29	1%	-6%[9.22 µM]	16%
30	nt	nt	3%

(list continues)
item	SMILES	Luc counter	GLA spleen mod	Epigenetic derep
31	Cc1nc2sc3c(c2c2nnc(SCC(=O)NCc4ccco4)n12)CCCC3	3%	-1%	-0.9%
32	Cc1cccc(C)c1OCC(=O)Nc1cccc(-c2nnc(-c3ccccc3)o2)c1	nt	-2%	1.0%
33	O=C(CSc1nnc(Nc2ccccc2)s1)Nc1cccc(S(=O)(=O)N2CCCCC2)c1	-3%	-4%	2.6%
34	N#CC1=C(N)Oc2cc(O)ccc2C1c1ccncc1 (centres undefined)	-7%	5%	5.3%
35	COc1ccccc1-c1cc(SC)c(C#N)c(=O)o1	-7%	-6%	15%
36	Cc1ccc(C(=O)NNC(=O)/C=C\C(=O)O)cc1	nt	7%	1.3%
37	CCc1ccc(C(O)(c2ccccc2OC)C(CN2CCOCC2)c2ccccc2)cc1 (centres undefined)	0%	1%	1.0%
38	CN1CCN(c2ccc(C(=O)NC3CCCCC3)cc2[N+](=O)[O-])CC1	0%	9%	0.3%
39	Cc1nn2c3c(cnc2c1-c1ccc(Cl)cc1)C(=O)CC(c1ccco1)C3 (centres undefined)	-1%	5%	-1.0%
40	O=c1c2ccccc2c(-c2ccc(Cl)cc2)nn1-c1ccccc1	2%	3%	0.9%
41	Cc1ccc(Sc2nnc(Cc3ccccc3)c3ccccc23)cc1	2%	2%	7.9%
42	COC(=O)C1C(c2ccccc2)C(C(=O)OCc2ccco2)C1c1ccccc1 (centres undefined)	-4%	5%	0.0%
43	COc1cc2c(cc1OC)CN(C(=O)CSc1nc3[nH]ncc3c(=O)n1-c1ccccc1)CC2	3%	5%	-0.8%
44	O=C(NCC1(c2ccccc2)CCCC1)C1(c2ccccc2)CCCC1	2%	2%	2.0%
45	O=C(NC(=S)NCC1CCCO1)c1ccc(Cl)cc1Cl (centres undefined)	-2%	0%	-0.9%

item	IMPase Li cell	Lamin A splicing	CBFb-RUNX1 inh
31	12%	8%	3%
32	nt	?	5%
33	8%	?	2%
34	-12%[38.3 µM]	2%	0%
35	-10%	?	-17%
36	nt	nt	2%
37	18%	nt	-13%
38	9%	9%[46 µM]	6%
39	18%[38.3 µM]	9%	-2%
40	12%	3%	14%
41	?	?	10%
42	23%	-18%	14%
43	21%[38.3 µM]	-7%	12%
44	20%	?	9%
45	2%	2%	7%

Further compounds.
item	SMILES	Luc counter	GLA spleen mod	Epigenetic derep
46	O=C(CC(NS(=O)(=O)c1ccc(Cl)cc1)c1ccco1)N1CCc2ccccc21 (centres undefined)	-5%	3%	1.0%
47	CCCCOc1ccc(C(=O)C(CN2CCOCC2)c2ccccc2)cc1 (centres undefined)	-1%	5%	1.2%
48	O=C(c1ccco1)N1CCN(c2c(-c3ccccc3)c3cc(Cl)ccc3[nH]c2=O)CC1	-1%	-2%	2.2%
49	COc1ccc(-c2oc3ncn(Cc4ccco4)c(=N)c3c2-c2ccc(OC)cc2)cc1	1%	1%	-0.9%
50	CC(C)Cn1c(N)c(S(=O)(=O)c2cccs2)c2nc3ccccc3nc21	-8%	17%	1.0%
51	CC1CN(C2CC(C)(C)NC(C)(C)C2)CCC1=O (centres undefined)	-6%	-2%	-3.0%
52	CC1=C(C(=O)Nc2cccnc2)C(c2cccnc2)n2ncnc2N1 (centres undefined)	1%	0%	0.9%

item	IMPase Li cell	Lamin A splicing	CBFb-RUNX1 inh
46	28%[38.3 µM]	-18%	-4%
47	6%	?	4%
48	28%[38.3 µM]	-25%	4%
49	27%[38.3 µM]	2%	-21%
50	11%[38.3 µM]	9%	5%
51	-13%[38.3 µM]	-2%	-2%
52	-6%	-1%	6%

Screens (PubChem)
